Rango complex inh = prevents formation of the Rango-importin beta complex | 340,000 compounds, 0.031% hits | Rango CFP/YFP FRET sensor + importin beta, 45 min | Potency, µM (titrated, usually from 92.2 µM), without a hit: at the highest dose inhibition of complex formation | AID 540263 | Q14974; active = rising FRET ratio curve, often small or poorly fitted; inconclusive = mostly compound fluorescence or quenching in the first reads; inactive = flat curves in all reads;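 also: potency is read from the fitted curve at half-maximal effect; 0% = DMSO wells and 100% = buffer wells lacking importin beta; nearly all actives have a fitted effect of over 15% in size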
Target sequence (Q14974 whole entry, looked up): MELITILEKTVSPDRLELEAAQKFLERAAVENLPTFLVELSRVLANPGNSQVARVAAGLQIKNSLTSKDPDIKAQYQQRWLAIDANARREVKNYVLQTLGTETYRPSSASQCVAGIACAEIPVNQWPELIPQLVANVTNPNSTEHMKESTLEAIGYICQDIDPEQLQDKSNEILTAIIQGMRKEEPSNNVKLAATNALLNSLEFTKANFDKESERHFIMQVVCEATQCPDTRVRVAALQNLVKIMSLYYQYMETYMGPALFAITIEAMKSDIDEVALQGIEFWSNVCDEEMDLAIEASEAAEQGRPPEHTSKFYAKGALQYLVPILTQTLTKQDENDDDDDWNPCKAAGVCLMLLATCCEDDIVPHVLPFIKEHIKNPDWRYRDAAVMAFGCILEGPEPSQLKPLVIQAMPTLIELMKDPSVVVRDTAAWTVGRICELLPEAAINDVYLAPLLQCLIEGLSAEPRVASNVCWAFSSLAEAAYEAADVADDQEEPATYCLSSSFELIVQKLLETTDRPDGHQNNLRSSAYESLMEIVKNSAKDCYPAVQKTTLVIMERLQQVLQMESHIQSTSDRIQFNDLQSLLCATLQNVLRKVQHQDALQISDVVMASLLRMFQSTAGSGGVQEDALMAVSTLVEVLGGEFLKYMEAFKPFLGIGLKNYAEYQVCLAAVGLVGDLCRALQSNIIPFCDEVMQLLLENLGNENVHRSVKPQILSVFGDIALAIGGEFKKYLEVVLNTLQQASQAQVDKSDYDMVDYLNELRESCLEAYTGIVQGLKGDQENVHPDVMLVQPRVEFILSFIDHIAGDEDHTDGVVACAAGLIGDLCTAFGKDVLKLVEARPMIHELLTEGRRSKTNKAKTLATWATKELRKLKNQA
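Inhibition scored from the CFP 486 nm/YFP 530 nm FRET ratio 45 min after adding 0.125 microM importin beta to 50 nM Rango biosensor preincubated 5 min with compound (room temperature, PBS with DTT, Tween-20, BSA). No-importin wells as positive control.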
GLA inh pH 4.5 = blocks human alpha-galactosidase A at pH 4.5; purified enzyme, 4-MU-alpha-Gal fluorescence, pH 4.5; 230,000 tested, under 10 active; activity change, negative = inhibition, % at 105 µM; P06280; inconclusive = small, poorly fitted or top-dose-only inhibition, or a rising curve; inactive = flat fitted curve, though single readings scatter; no compound was filed as active;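 also: 0% = full activity with enzyme and -100% = basal without enzyme; dose as in the result columns while the protocol names 77 µM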
Rango release inh = prevents RanGTP from dissociating the Rango-importin beta complex; Potency, µM (series often up to 46.1 µM), for the others: top-dose activity change, negative = inhibition; O95149+P62826; Biochemical FRET Rango-importin beta, RanGTP-induced dissociation; 340,000 compounds, 0.071% hits; active means falling FRET ratio curve, often poorly fitted, with flat reads before Ran was added; inconclusive means other falling curves, or compound fluorescence or quenching; inactive means flat or rising ratio curve;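 also: potency is read from the fitted curve at half-maximal effect; % of control where 0% means no effect; nearly all actives have a fitted effect of over 45% in size; -100% = wells without RanGTP and RCC1; the record marks most hits as doubtful in a second field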
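Rango (0.1 uM)–importin beta (0.25 uM) complex; RanGTP-RCC1 trigger; 45 min RT; CFP/YFP FRET read.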
miR-21 reporter = raises the signal of a miR-21 reporter; HeLa miR-21 FLuc reporter, luciferase, 48 h; Potency, µM (doses to about 38.3 µM), for inactives: at the top dose reporter change, positive = more light; 340,000 tested, under 10 active; AID 2288; active = well fitted rising curve with a large enough effect; inconclusive = small, poorly fitted or top-dose-only effect; inactive = no such curve, though single readings can be large or run the other way;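 also: % of control where 0% means no effect; miR-21 action dims this reporter so a rising signal means less miR-21 action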
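Using DMEM plus 10% FBS, HeLa miR-21-FLuc cells are incubated with test compounds (final up to about 40uM) for 48 hours; firefly luciferase signal is then imaged following reagent-mediated lysis.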
Numbers without * were called inactive; ? = inconclusive; . = not tested or not shown; & = joins results of further samples; [ ] = another dose, or the depositor's remark.

Every second line gives: Rango complex inh	GLA inh pH 4.5	Rango release inh	miR-21 reporter
CCc1ccc(N2C(=O)NC(=O)/C(=C\C=C\c3ccco3)C2=O)cc1
 : ?	8	-14%	6%
CCOc1ccc(NC(=O)N2C[C@H]3C[C@@H](C2)c2cccc(=O)n2C3)cc1
 : -1.8%	.	15%	0%
CCc1cccc2c(C#N)cn(CC(=O)N3CCOCC3)c12
 : -3.4%	6	0%	1%
CN(C)c1cc[n+](CC(O)C[n+]2ccc(N(C)C)cc2)cc1
 : 4.2%	.	4%	.
COC(=O)C1=C(c2ccccc2)C[C@@H]2CC[C@H]1N2C(=O)NCC1CC1
 : -4.8%	.	-16%	.
N=C1c2ccccc2CN1c1ncccn1
 : ?	0	-12%	-13%
Cc1cccc(N2CCC3(CC2)C(=O)NC(=O)NC3=O)c1
 : 2.7%	.	36%	.
COC(=O)C1=C(c2c(C)noc2C)C[C@@H]2CC[C@H]1N2C(=O)N1CCOCC1
 : -0.3%	.	-2%	.
CC(C)n1c(=O)c(C=Nc2ccc(S(N)(=O)=O)cc2)c(O)n(Cc2ccco2)c1=O
 : ?	0	-19%	-5%
COc1ccccc1CCNCc1ccc(OC)c(OC)c1OC
 : 1.0%	9	-10%	-6%
O=C1NC(=O)C(=Cc2ccc3ccccc3c2)C(=O)N1
 : 1.5%	-4	-13%	-2%
COc1cccc(-c2nc(CS(=O)CC(=O)N3CCC4(CC3)OCCO4)c(C)o2)c1 (configuration not stated)
 : 4.6%	-23	-9%	-3%
C/C(=N\NC(=O)c1ccccc1O)c1c(O)n(Cc2ccccc2)c(=O)[nH]c1=O
 : 0.0%	-4	0%	-4%
C[C@@H]1CN(C2CCC(C#N)(c3ccc(F)cc3)CC2)CC[C@]1(C(=O)O)c1ccccc1 (some centres not stated)
 : -1.7%	.	9%	.
COc1ccc(OC)c(CN2CCN(C(=O)COc3cccc(C)c3)CC2)c1
 : -15%	10	21%	-18%
C[N+]1=C(/C=C/Nc2ccccc2)C(C)(C)c2ccccc21
 : ?	9	?	25%
COc1ccccc1-n1c(O)c(/C=N/N2CCCCC2)c(=O)n(-c2ccccc2OC)c1=S
 : 3.4%	3	-8%	1%
CC(C)OC12Oc3ccccc3C=C1N1CCC2CC1 (configuration not stated)
 : 1.0%	-7	2%	2%
O=C(NC1CC1)c1cn(Cc2ccccc2)nc1-c1ccccc1
 : -3.6%	.	-9%	.
[N-]=[N+]=NCCN1CCC(O)CCC1=O (configuration not stated)
 : 0.1%	.	-12%	-1%
CC1=NN(c2ccccc2)C(=O)C1/C=C1\C(=O)NC(=O)N(c2cc(C)cc(C)c2)C1=O (configuration not stated)
 : 3.6%	2	-4%	-3%
CCC(C)C12CN3CCN(CC(C)(C3)C1O)C2 (configuration not stated)
 : 3.1%	2	2%	-1%
Cc1ccc(-c2ccc(=O)n(CC(=O)N3CCC4(CC3)OCCO4)n2)cc1
 : 6.0%	4	-8%	-4%
Cc1c(O)ccc(C(=O)CN2CC(C)OC(C)C2)c1O (configuration not stated)
 : 0.3%	.	0%	-3%
C[C@H](NC(=O)N1C[C@H]2C[C@@H](C1)c1cccc(=O)n1C2)C(=O)Nc1cccc(F)c1
 : -0.8%	.	5%	3%
O=c1c2ccccc2nc(/C=C/c2ccc3c(c2)OCO3)n1-c1ccccc1
 : -1.0%	4	-3%	11%
O=C1CCCC2C3CCCN4CCCC(CN12)C34 (configuration not stated)
 : -0.6%	-1	1%	-2%
Cc1ccc(NP(=O)(Nc2ccc(C)cc2)Oc2ccccc2)cc1
 : 1.9%	-1	-2%	0%
Cn1ncnc2c(=O)n(C)c(=O)nc1-2
 : -0.8%	-8	9%	?
Clc1ccccc1CN1CCN(c2ccccc2)CC1
 : -4.6%	7	-7%	-5%

Structures from the list above that have four or more nitrogen atoms:
Every second line gives: Rango complex inh	GLA inh pH 4.5	Rango release inh	miR-21 reporter
CN(C)c1cc[n+](CC(O)C[n+]2ccc(N(C)C)cc2)cc1
 : 4.2%	.	4%	.
N=C1c2ccccc2CN1c1ncccn1
 : ?	0	-12%	-13%
CC(C)n1c(=O)c(C=Nc2ccc(S(N)(=O)=O)cc2)c(O)n(Cc2ccco2)c1=O
 : ?	0	-19%	-5%
C/C(=N\NC(=O)c1ccccc1O)c1c(O)n(Cc2ccccc2)c(=O)[nH]c1=O
 : 0.0%	-4	0%	-4%
COc1ccccc1-n1c(O)c(/C=N/N2CCCCC2)c(=O)n(-c2ccccc2OC)c1=S
 : 3.4%	3	-8%	1%
[N-]=[N+]=NCCN1CCC(O)CCC1=O (configuration not stated)
 : 0.1%	.	-12%	-1%
CC1=NN(c2ccccc2)C(=O)C1/C=C1\C(=O)NC(=O)N(c2cc(C)cc(C)c2)C1=O (configuration not stated)
 : 3.6%	2	-4%	-3%
C[C@H](NC(=O)N1C[C@H]2C[C@@H](C1)c1cccc(=O)n1C2)C(=O)Nc1cccc(F)c1
 : -0.8%	.	5%	3%
Cn1ncnc2c(=O)n(C)c(=O)nc1-2
 : -0.8%	-8	9%	?

(cont.)
Every second line gives: Rango complex inh	GLA inh pH 4.5	Rango release inh	miR-21 reporter
COC(=O)C1C2c3ccccc3C(c3ccccc32)C1C(=O)OC (configuration not stated)
 : 5.0%	-4	2%	0%
Cc1c(C(=O)N2CCC3(CC2)OCCO3)sc2ncnc(N3CCN(c4ccccn4)CC3)c12
 : -0.7%	4	-2%	-5%
O=c1cccc2n1CC1CC2CN(S(=O)(=O)c2ccc(F)cc2)C1 (configuration not stated)
 : 6.5%	10	11%	-1%
CN1CCN(C(=O)COc2ccc3ccccc3c2Br)CC1
 : -2.0%	5	17%	-37%
CN1CCC(c2c[nH]c3ccc(O)cc23)CC1
 : 4.0%	0&2	-1%	.
CC(=NCCCN1CCOCC1)c1c(O)[nH]c(=O)[nH]c1=O
 : -1.7%	4	-3%	-3%
CCOC(=O)Cn1cc(C=C2C(=O)N(C)C(=O)N(C)C2=O)c2ccccc21
 : 1.3%	.	6%	3%
O=C1NC2C(=CC(O)C(O)C2O)c2cc3c(c(O)c21)OCO3 (configuration not stated)
 : -0.2%	.	-18%	.
Cc1ccc2occ(CN3CC4CC(C3)c3cccc(=O)n3C4)c(=O)c2c1 (configuration not stated)
 : 3.1%	-4	24%	0%
C/C(=N\N1CCCCCC1)c1c(O)n(-c2ccc(C)cc2)c(=O)[nH]c1=O
 : 1.3%	-6	-13%	-40%
c1cc2c(cc1CCNC1C3CC4CC(C3)CC1C4)OCO2 (configuration not stated)
 : 4.4%	-4	8%	-1%
COc1nc(NC(C)C)nc(NC(C)C)n1
 : -2.9%	6&0	1%	-4%
CC1CN1P1(=O)OCC(C)([N+](=O)[O-])CO1 (configuration not stated)
 : -2.5%	.	1%	.
C[C@]12CCC3C(CC[C@H]4C[C@@H](O)CC[C@]34C)C1C[C@@H](Br)[C@@H]2O (some centres not stated)
 : -0.3%	.	18%	.
CCCC(=O)Nc1ccc(N2CCN(CC)CC2)c(Cl)c1
 : 2.2%	0	3%	-7%
COc1ccccc1N(CC(=O)NC1CCCCC1)C(=O)c1cnn(C(C)C)c1
 : -0.4%	4	-14%	-3%
CC1(C)C2SCC(=O)N2CCN1CC(=O)NN (configuration not stated)
 : -3.2%	-4	8%	-3%
COC(=O)C1=C(c2cccc(C#N)c2)C[C@@H]2CC[C@H]1N2C(=O)N1CCCC1
 : -0.9%	.	-5%	.
Cc1c(NC(=O)C(C)OC(=O)Cc2ccccc2)c(=O)n(-c2ccccc2)n1C (configuration not stated)
 : 0.4%	-3	-3%	0%
O=C(C1CCN(c2nc3ccc(Br)cc3s2)CC1)N1CCC2(CC1)OCCO2
 : -2.7%	-5	3%	-20%
CC1=NN=C(c2ccc(N)cc2)c2cc3c(cc2C1)OCO3
 : ?	-1&-5	?	.
CCOC(=O)C1(CCc2ccccc2)CCN(Cc2ccco2)CC1
 : -0.7%	-1	24%	0%
C=CC[N+]1(C)C2CCC1CC(O)C2 (configuration not stated)
 : 1.2%	-2[21.1 µM]	-8%	0%
CN[C@@H]1C[C@@H](c2ccc(Cl)c(Cl)c2)c2ccccc21
 : .	-3&-27	.	?
CC(C)c1ccc(N2C(=O)NC(=O)/C(=C/C=C/c3ccco3)C2=O)cc1
 : ?	4	?	-11%
O=P(Nc1cccnc1)(Oc1ccccc1)Oc1ccccc1
 : ?	4	4%	-2%
Cc1ccc(C)c(NC(=O)CSc2nnc([C@@H](N)Cc3c[nH]c4ccccc34)o2)c1
 : ?	-5	-11%	-3%
CSc1ccc(CN2CCN(c3ccccc3C)CC2)cc1
 : 3.7%	.	1%	5%
CCCNS(=O)(=O)c1ccc(OCC(=O)N2CCN(C)CC2)cc1
 : -1.7%	-1	-16%	0%
CC(Cl)(Cl)/C(=N/P(=S)(N1CCOCC1)N1CCOCC1)N1CCOCC1
 : -1.9%	2	6%	2%

Further records
structure | Rango complex inh | GLA inh pH 4.5 | Rango release inh | miR-21 reporter
CN(C)C(Cc1ccc(C#N)cc1)C(=O)c1ccccc1 (configuration not stated) | ? | -12 | -19% | -13%
CCOc1ccccc1-n1c(O)c(C=NCc2ccc3c(c2)OCO3)c(=O)[nH]c1=O | -2.1% | 12 | -14% | -7%
Cc1ccc(NC(=O)CCNC(=O)N2C[C@H]3C[C@@H](C2)c2cccc(=O)n2C3)c(C)c1 | 1.3% | . | 0% | 0%
COC(=O)C1=C(c2ccc(F)cc2F)C[C@@H]2CC[C@H]1N2C(=O)N1CCOCC1 | -0.3% | . | 1% | .
Cc1cccc(NP(C)(=O)c2nc3c(s2)CCCC3)c1 (configuration not stated) | -1.3% | 3 | -17% | -11%
CC(=O)OC1N=C(c2ccccc2)c2ccccc2NC1=O (configuration not stated) | 0.2% | -2 | 4% | -6%
C[C@]12C=CC(=O)C=C1CC[C@@H]1[C@@H]2CC[C@]2(C)C(=O)CC[C@@H]12 | 0.9% | . | -3% | .
COc1ccc(C(O)C(C)NC(C)C(O)c2ccc(OC)cc2)cc1 (configuration not stated) | -2.4% | . | -23% | .
CC1([N+](=O)[O-])COP(=O)(Nc2cccc(F)c2)OC1 (configuration not stated) | -0.3% | . | -15% | .
CCCCn1c(C)c(C(=O)OCC)c2c(CN3CCCC3)c(O)ccc21 | -1.9% | . | 2% | 17%
CC1(C)CN=C(Nc2ccc(F)c(Cl)c2)S1 | -0.6% | -5 | 0% | -20%
Cc1ccc(N2CCN(CCc3ccccc3)CC2)cc1 | -3.1% | 0 | -2% | -8%
NCCc1ccc(OCc2ccccc2)c(OCc2ccccc2)c1 | 0.0% | . | -1% | .
COC(=O)C1=C(c2ccccc2)C[C@@H]2CC[C@H]1N2C(=O)NC(C)C | -0.1% | . | -5% | .
C=CCc1cccc(C=Nc2c[nH]c(=O)[nH]c2=O)c1O | ? | . | ? | -3%
CCCCCn1c(NC(=O)c2ccco2)c(C(=O)OCC)c2nc3ccccc3nc21 | 1.9% | -10 | -5% | 4%
CCC1(CC(C)c2ccccc2)C(=O)NC(=O)NC1=O (configuration not stated) | 1.6% | . | 1% | .
Oc1ccc(C2NCc3ccccc3-n3cccc32)cc1Cl (configuration not stated) | -1.2%&0.2% | 0&-2 | ? | -11%&0%
Cc1c(C)c2ccc(OCC(=O)N3CCN(Cc4ccccc4)CC3)cc2oc1=O | 3.2% | . | 34% | .
O=C(C1CCC(=O)N1C1CCCCC1)N1CCC2(CC1)OCCO2 (configuration not stated) | -0.5% | 7 | 0% | 0%
COc1ccc(Cc2c(O)[nH]c(=O)[nH]c2=O)c(OC)c1 | -4.8% | 3 | -22% | 2%
O=C(Cc1ccccc1[N+](=O)[O-])N1CCN(Cc2ccc3c(c2)OCO3)CC1 | -0.2% | -2 | -3% | 0%
CCOP(=S)(OCC)Oc1cc(C)nc(C(C)C)n1 | -2.8% | . | ? | .
N#Cc1c(/N=C/c2ccc(O)cc2O)sc2c1C1CCN2CC1 | ? | -6 | ? | -15%
N=C1/C(=C\c2ccc(OC(=O)c3ccccc3Cl)cc2)C(=O)N=C2SC(N3CCOCC3)=NN12 | ? | . | -23% | -11%

Only part of the results is shown; the hit share may differ from the screen's.
